# High-throughput results: PubChem, National Center for Advancing Translational Sciences (NCATS)
# NS1 function inh: qHTS Assay for Inhibitors of Influenza NS1 Protein Function; Potency, µM (doses to about 46.1 µM), without a hit: at the top dose activity, positive = more growth; S. cerevisiae slowed by influenza A NS1, growth recovery by OD600; AID 2326, 2010; 270,000 tested, 0.4% active; active means well fitted rising curve with a large enough effect; inconclusive means small, poorly fitted or top-dose-only effect; inactive means no such curve, though single readings can be large or run the other way; also: nearly all actives have a fitted effect of over 50% in size
#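 In this qHTS, NS1 from influenza A is expressed in budding yeast, where it slows growth. Cells are switched from glucose to 2% galactose medium (pH 6.0, -URA), treated with compound, and growth recovery is read at OD600.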
# LASV entry inh: qHTS for Inhibitors of binding or entry into cells for Lassa Virus; Potency, µM (highest dose often 37.9 µM), for inactives: top-dose activity change, negative = inhibition, hits mostly inhibitors; 300,000 tested, 1.2% active; AID 540256, 2011; Lassa virus pseudotype entry inhibition, cell reporter; control for the full effect not named in the record; active means well fitted inhibition curve with a large enough effect; inconclusive means small, poorly fitted or top-dose-only effect, or effect the other way; inactive means flat fitted curve, though single readings scatter; tested in HEK293 cells; also: % is scaled to controls: 0 for no effect and ±100 for the full control effect; nearly all actives have a fitted effect of over 50% in size; luciferase read-out
# SARS PLP yeast: qHTS of Yeast-based Assay for SARS-CoV PLP; S. cerevisiae expressing SARS-CoV PLpro, growth rescue; control for the full effect not named in the record; Potency, µM (highest dose often 32.9 µM), without a hit: at the top dose activity, positive = growth rescue; 330,000 tested, 0.19% active; AID 485353, 2010; active means well fitted rising curve with a large enough effect; inconclusive means small, poorly fitted or top-dose-only effect; inactive means no such curve, though single readings can be large or run the other way; also: 0% is about no effect; nearly all actives have a fitted effect of over 55% in size; growth read by luminescence after 48 h
# Cruzain inh Det: qHTS Assay for Promiscuous and Specific Inhibitors of Cruzain (with detergent) | Cruzipain (Trypanosoma cruzi), P25779 | purified cruzain, Z-FR-AMC fluorescence, 0.01% Triton | Potency, µM, without a hit: max response, negative = inhibition, actives largely listed as inhibitors | 200,000 tested, 0.43% active | AID 1478, 2009;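 also: plate controls were neutral wells for no effect and buffer without enzyme for full effect; nearly all actives have a fitted effect of over 40% in size; top concentration of the series not given in the record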
# Target sequence (P25779 123-467 limits assumed): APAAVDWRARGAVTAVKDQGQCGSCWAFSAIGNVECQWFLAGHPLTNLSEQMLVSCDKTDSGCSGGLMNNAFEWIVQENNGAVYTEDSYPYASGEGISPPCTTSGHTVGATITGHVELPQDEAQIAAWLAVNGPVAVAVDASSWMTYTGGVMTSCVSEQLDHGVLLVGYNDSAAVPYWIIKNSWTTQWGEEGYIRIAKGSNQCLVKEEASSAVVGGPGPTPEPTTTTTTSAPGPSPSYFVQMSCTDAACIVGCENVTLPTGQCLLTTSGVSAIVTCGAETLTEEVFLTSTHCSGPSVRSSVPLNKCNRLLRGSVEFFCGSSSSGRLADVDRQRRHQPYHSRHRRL
#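 Purified cruzain (1.5 nM final) was preincubated with compounds for 15 min at room temperature in 100 mM sodium acetate pH 5.5, 5 mM DTT, 0.01% Triton X-100. Reaction started with 2 uM Z-FR-AMC; AMC fluorescence change over 60 s gave activity.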
# 2A StopGo: High Throughput Screening for Foot and Mouth Disease Virus Antivirals | Potency, µM (titrated, usually from 57.9 µM), for the others: at the top dose signal change, negative = less light | 410,000 tested, 1.2% active | human cells with a luciferase reporter of 2A StopGo recoding; control for the full effect not named in the record; active = well fitted falling curve with a large enough effect; inconclusive = small, poorly fitted or top-dose-only effect; inactive = no such curve, though single readings can be large or run the other way; tested in HEK293T cells; also: % is scaled to controls: 0 for no effect and ±100 for the full control effect; nearly all actives have a fitted effect of over 45% in size; luciferase light after 4 h
# RE007 growth inh: qHTS Assay for Inhibitors of the HIV-1 protein Vpr; AID 651644, 2012; Potency, µM (highest dose often 92.2 µM), for the others: at the highest dose activity change, negative = less growth; S. pombe RE007 Vpr strain, BacTiter-Glo ATP luminescence, 24 h; control for the full effect not named in the record; 360,000 tested, 0.21% active; active = well fitted falling curve with a large enough effect; inconclusive = small, poorly fitted or top-dose-only effect; inactive = no such curve, though single readings can be large or run the other way;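 also: % is scaled to controls: 0 for no effect and ±100 for the full control effect; nearly all actives have a fitted effect of over 50% in size; the assay follows cell death caused by Vpr and the record does not say whether a fall means rescue or toxicity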
#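 Fission yeast RE007 carrying one integrated HIV-1 vpr copy, seeded at OD 0.01 in PMG+AL medium with 23 nL pinned compound. Grown 24 h at 30 degrees; viability read by BacTiter-Glo luminescence after 5 min.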
# Cruzain inh noDet: qHTS Assay for Promiscuous and Specific Inhibitors of Cruzain (without detergent); Cruzipain (Trypanosoma cruzi), P25779; purified cruzain, Z-FR-AMC fluorescence, no detergent; Potency, µM, without a hit: max response, negative = inhibition, most hits filed as inhibitors; 200,000 tested, 2.3% active; AID 1476, 2009;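 also: plate controls were enzyme without inhibitor for no effect and buffer without enzyme for full effect; nearly all actives have a fitted effect of over 40% in size; top concentration of the series not given in the record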
#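 Purified cruzain at 1.5 nM, pre-incubated 15 min with compound at room temperature in 100 mM sodium acetate pH 5.5, 5 mM DTT, 0.00005% Triton X-100. Reaction started with 2 uM Z-FR-AMC; AMC fluorescence increase over 60 s gives rate.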
# MARV entry inh: qHTS for inhibitors of binding or entry into cells for Marburg Virus | 300,000 tested, 1.8% active | Potency, µM (series often up to 37.8 µM), without a hit: at the highest dose activity change, negative = inhibition, actives largely listed as inhibitors | Marburg virus pseudotyped entry inhibition, cell reporter; control for the full effect not named in the record; about a third of the inactives were read at about 46 µM; active = well fitted inhibition curve with a large enough effect; inconclusive = small, poorly fitted or top-dose-only effect, or effect the other way; inactive = flat fitted curve, though single readings scatter; tested in HEK293 cells; about a fifth of its hits are not listed in these tables; also: % is scaled to controls: 0 for no effect and ±100 for the full control effect; luciferase read-out
# * marks the source's active call; other numbers are inactive results; ? = inconclusive; . = no result given; [ ] = another dose, or the depositor's remark. Unless noted, calls follow the shape of the dose curve; as a rule, active = well fitted curve in the direction sought with a large enough effect; inconclusive = small, poorly fitted or top-dose-only effect, or another doubt; inactive = no such curve, though single readings can be large; an effect the other way counts as inactive or inconclusive. Potency is read from the fitted curve at half-maximal effect. This is a random part of the collection. Share with any hit: about 4.5%.
# Preview:
SMILES,NS1 function inh,LASV entry inh,SARS PLP yeast,Cruzain inh Det,2A StopGo,RE007 growth inh,Cruzain inh noDet,MARV entry inh
COc1ccc(C2c3c(-c4cc(Cl)c(C)cc4O)n[nH]c3C(=O)N2Cc2cccnc2)cc1OC (centres undefined),-62%,?,1%,-16%,-17%,17%,?,15%
CCc1ccc(-c2[nH]c3c(c2-c2sc(C)c(C(=O)OC)c2O)c(=O)[nH]c(=O)n3C)cc1,.,?,.,-1.3%,?,.,?,?
Cc1cccc(N2CCN(C(=O)C3CCN(S(=O)(=O)c4ccc5c(c4)oc(=O)n5C)CC3)CC2)c1C,.,0%[46.1 µM],.,-4.8%,-5%,.,?,?
CSc1ncc(C(=O)Nc2cccc(S(N)(=O)=O)c2)n1-c1ccccc1,6%,-1%,-4%,.,-6%,-4%,.,-18%[46.1 µM]
Cc1[nH]c(C)c(S(=O)(=O)N(Cc2ccccc2)C(C)(C)C)c1C(=O)N1CCCC1,-8%,.,3%,.,-6%,4%,.,.
O=S(=O)(NN=C1CCCCCC1)c1ccccc1,12%,26%[46.1 µM],0%,.,27%,-2%,.,4%[46.1 µM]
COCCN(CC(=O)Nc1cccc(C)c1C)C(=O)C1CCN(S(=O)(=O)c2ccccc2)CC1,.,1%,.,.,-4%,-8%,.,-5%
COc1ccc(CCNCc2ccncc2)cc1,6%,9%,-11%,4.2%,8%,1%,0%,-3%
CC1Cc2ccccc2N1C(=O)CO/N=C/c1ccccc1OC(F)F (centres undefined),4%,-6%,-2%,-8.0%,-18%,9%,-10%,11%[46.1 µM]
Cc1nn(CC(=O)NCCCN2CC(C)CC(C)C2)c(=O)c2cccn12 (centres undefined),-12%,28%[46.1 µM],-3%,.,-6%,-3%,.,?

# Results, previewed entries included:
SMILES,NS1 function inh,LASV entry inh,SARS PLP yeast,Cruzain inh Det,2A StopGo,RE007 growth inh,Cruzain inh noDet,MARV entry inh
COc1ccc(C2c3c(-c4cc(Cl)c(C)cc4O)n[nH]c3C(=O)N2Cc2cccnc2)cc1OC (centres undefined),-62%,?,1%,-16%,-17%,17%,?,15%
CCc1ccc(-c2[nH]c3c(c2-c2sc(C)c(C(=O)OC)c2O)c(=O)[nH]c(=O)n3C)cc1,.,?,.,-1.3%,?,.,?,?
Cc1cccc(N2CCN(C(=O)C3CCN(S(=O)(=O)c4ccc5c(c4)oc(=O)n5C)CC3)CC2)c1C,.,0%[46.1 µM],.,-4.8%,-5%,.,?,?
CSc1ncc(C(=O)Nc2cccc(S(N)(=O)=O)c2)n1-c1ccccc1,6%,-1%,-4%,.,-6%,-4%,.,-18%[46.1 µM]
Cc1[nH]c(C)c(S(=O)(=O)N(Cc2ccccc2)C(C)(C)C)c1C(=O)N1CCCC1,-8%,.,3%,.,-6%,4%,.,.
O=S(=O)(NN=C1CCCCCC1)c1ccccc1,12%,26%[46.1 µM],0%,.,27%,-2%,.,4%[46.1 µM]
COCCN(CC(=O)Nc1cccc(C)c1C)C(=O)C1CCN(S(=O)(=O)c2ccccc2)CC1,.,1%,.,.,-4%,-8%,.,-5%
COc1ccc(CCNCc2ccncc2)cc1,6%,9%,-11%,4.2%,8%,1%,0%,-3%
CC1Cc2ccccc2N1C(=O)CO/N=C/c1ccccc1OC(F)F (centres undefined),4%,-6%,-2%,-8.0%,-18%,9%,-10%,11%[46.1 µM]
Cc1nn(CC(=O)NCCCN2CC(C)CC(C)C2)c(=O)c2cccn12 (centres undefined),-12%,28%[46.1 µM],-3%,.,-6%,-3%,.,?
CCOC(=O)c1c(N)sc(C(=O)Nc2ccc3c(c2)OCO3)c1C,-43%,?,-6%,-3.7%,-50%,?,-16%,?
CC(=O)NC(c1ccc([N+](=O)[O-])cc1)c1c(O)ccc2ccccc12 (centres undefined),3%,1%[46.1 µM],0%,.,-25%,-27%,.,?
C/C(NC(=O)c1cccc(F)c1)=C1/C(=O)C[C@@H]2[C@H]1C2(C)C,-17%,1%,0%,-3.9%,18%,4%,-8%,-11%
C=C/C(C)=C/CC1C(=C)CCC2C(C)(C(=O)O)CCCC12C (centres undefined),-15%,.,0%,.,-12%,-6%,.,.
Cn1cccc1C(=O)NCc1ccccn1,.,-4%,0%,.,23%,-19%,.,-16%
CC(NC(=O)Cc1ccc(NC2=NC3CS(=O)(=O)CC3S2)cc1)c1ccccc1 (centres undefined),-5%,.,1%,.,-2%,-5%,.,.
COc1ccc(CN(CC(=O)NC2CCCC2)C(=O)CCC(=O)Nc2nccs2)cc1,2%,.,2%,.,-5%,2%,.,-4%[46.1 µM]
CC(C1CC2CCC1C2)n1c(COc2ccccc2F)nnc1SCC(N)=O (centres undefined),-45%,0%,-5%,-7.0%,-22%,10%,?,?
CCC(C(=O)NCc1ccc(OC)cc1)n1nc(C)n2c(cc3occc32)c1=O (centres undefined),-3%,6%,-3%,0.2%,1%,20%,-13%,-6%
Cn1cnc2c(N3CCCCC3)nccc21,0%,14%,3%,8.9%,-6%,4%,-1%,13%
COC(=O)c1cc(S(=O)(=O)N2CCCC2=O)c(Cl)cc1Cl,4%,.,-1%,.,4%,-4%,.,.
COc1ccc(NS(=O)(=O)c2cccc(NC(=O)C34CCC(CC3)C4)c2)cc1,13%,12µM*,2%,-5.0%,8%,-13%,-4%,?
c1ccc(-n2c(-c3ccco3)nnc2N2CCOCC2)cc1,3%,2%,2%,3.9%,.,7%,-8%,10%
COc1ccc(N(CC(=O)NCC2CCCO2)S(=O)(=O)c2ccc(C)cc2)cc1OC (centres undefined),-1%,0%,-7%,4.6%,16%,-9%,-13%,1%
CC(=O)c1c(-c2ccc(C)cc2)nc2c3ccccc3ccn12,2%,.,-1%,.,-22%,-16%,.,6%[46.1 µM]
# Continued.
SMILES,NS1 function inh,LASV entry inh,SARS PLP yeast,Cruzain inh Det,2A StopGo,RE007 growth inh,Cruzain inh noDet,MARV entry inh
CC(=O)N1c2ccccc2-c2nc3ccccc3n2C1C (centres undefined),-4%,.,1%,.,-9%,2%,.,.
CC(C)=CC(=O)N1CCC(N2CCC(C(=O)N3CCOCC3)CC2)CC1,1%,.,0%,.,0%,5%,.,.
CCOc1ccc(C(=O)c2cn(Cc3ccc(OC)cc3)c3cc(OC)c(OC)cc3c2=O)cc1,.,?,.,-5.1%,-14%,.,?,?
CCC(=O)Oc1ccc(/C(CC)=C(\CC)c2ccc(OC(=O)CC)cc2)cc1,1%,-24%,2%,-1.0%,-12%,2%[18.4 µM],-16%,-8%
CCNC(=S)Nc1ccc(Cc2nc3ccccc3[nH]2)cc1,2%,-6%[46.1 µM],1%,.,-12%,-7%,.,5%[46.1 µM]
C=CCC1NS(=O)(=O)OC(CCCC)C1O (centres undefined),35%,.,19%,.,30%[activator],1%,.,.
CN(Cc1nc2ccccc2c(=O)[nH]1)C(=O)c1cccc(S(=O)(=O)N2CCc3ccccc32)c1,.,4µM*,6%,.,-13%,2%,.,?
O=C(c1ccc(Br)c(S(=O)(=O)N2CCCCC2)c1)N1CCCCC1,-2%,-5%,-5%,.,-6%,-2%,.,-21%
Cn1c(=O)c(=O)n(C)c2cc(S(=O)(=O)CCC(=O)Nc3ccc(C(F)(F)F)cc3)ccc21,8%,.,1%,.,2%,-1%,.,.
O=c1[nH]c(/C=C/c2ccccn2)nc2ccccc12,-1%,.,-4%,.,35%[activator],-17%,.,.
COc1ccc(S(=O)(=O)N2Cc3ccccc3CC2C(=O)O)cc1OC (centres undefined),0%,.,1%,0.0%,-4%,12%,2%,.
CCn1c(NCc2ccccc2Cl)nc2ccccc21,-5%,?,-1%,-2.2%,39%[activator],-20%,14%,16%
C/C(=N/NC(=O)c1ccccn1)c1ccc(O)cc1,3%,.,1%,.,0%,7%,.,.
O=C(Cn1ncc2ccccc21)N1CCC2(CC1)OCCO2,-4%,0%,-7%,4.8%,.,-12%,-9%,4%
COc1cc(SC)ccc1C(=O)N1CCn2c3c(c4cc(C)ccc42)CCCC31 (centres undefined),.,7%[46.1 µM],.,0.4%,-12%,.,8%,-8%[46.1 µM]
CCc1nnc2sc(-c3cc(-c4ccccc4)nc4ccccc34)nn12,-34%,-30%,0%,-1.1%,-2%,-12%,?,?
CC(=O)c1cccc(Nc2nc(-c3cccc(C)c3)nc3ccccc23)c1,.,7%[46.1 µM],.,-9.6%,-22%,.,-1%,18%[46.1 µM]
COc1cc(OC)cc(-c2nc(-c3ccc4c(c3)[nH]c(=O)n4C)no2)c1,.,13%[46.1 µM],.,-1.0%,0%,.,3%,.
Cc1[nH]n(-c2cccc3ccccc23)c(=O)c1/C=N/NC(=O)c1cccc([N+](=O)[O-])c1,?,-10%,?,-5.9%,-24%,12%,6%,?
CC1CC(C)CN(C(=O)COc2ccc(-c3nnco3)cc2)C1 (centres undefined),8%,-1%,-3%,3.4%,-17%,-6%[3.69 µM],-7%,-10%
O=C(CN1CCCC1)Nc1ccccc1C(=O)c1ccccc1,3%,.,-1%,.,-9%,-8%,.,.
CCN(CC)CC(=O)N1c2ccccc2Sc2ccccc21,3%,.,0%,.,-23%,4%,.,.
Cc1ccc(N(CCC#N)C(=O)COC(=O)C2CCN(S(=O)(=O)c3ccc4c(c3)OCCO4)CC2)cc1,.,-3%[46.1 µM],2%,.,-12%,7%,.,25%
O=C(NNS(=O)(=O)c1ccc2ccccc2c1)NC1CCCCC1,6%,-17%,8%,-1.0%,-8%,33%,-24%,8%
CCOC(=O)C1(Cc2cccc(OC)c2)CCN(Cc2ccc(C)s2)CC1,-3%,4.5µM*,1%,.,?,-5%,.,5µM*
